From PubChem
2A StopGo = High Throughput Screening for Foot and Mouth Disease Virus Antivirals; human cells with a luciferase reporter of 2A StopGo recoding; control for the full effect not named in the record; Potency, µM (top dose mostly 57.9 µM), inactives show top-dose signal change, negative = less light; actives 1.2% (n = 410,000); AID 1159524, 2015; active = well fitted falling curve with a large enough effect; inconclusive = small, poorly fitted or top-dose-only effect; inactive = no such curve, though single readings can be large or run the other way; tested in HEK293T cells; further: on the % scale 0 is the no-effect control and ±100 the full control effect; nearly all actives have a fitted effect of over 45% in size; luciferase light after 4 h
NS1 inh = qHTS Assay for Inhibitors of Influenza NS1 Protein Function | actives 0.4% (n = 270,000) | S. cerevisiae slowed by influenza A NS1, growth recovery by OD600 | Potency, µM (series often up to 46.1 µM), for inactives: at the highest dose activity, positive = more growth; further: actives are rising curves; nearly all actives have a fitted effect of over 50% in size
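OD600 was taken as the measure of yeast growth restored by compound in an NS1-expressing S. cerevisiae strain. Cells had been washed out of glucose medium and diluted 1:100 into galactose -URA medium, pH 6.0.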
SARS PLpro yeast = qHTS of Yeast-based Assay for SARS-CoV PLP; actives 0.19% (n = 330,000); Potency, µM (titrated, usually from 32.9 µM), for inactives: at the top dose activity, positive = growth rescue; S. cerevisiae expressing SARS-CoV PLpro, growth rescue; control for the full effect not named in the record; further: 0% is about no effect; nearly all actives have a fitted effect of over 55% in size; growth read by luminescence after 48 h
Numbers without * were called inactive; u = inconclusive; [ ] = dose if it differs, or a comment. Unless noted, the call rests on the fitted dose curve; in most records, active means well fitted rising curve with a large enough effect; inconclusive means small, poorly fitted or top-dose-only effect; inactive means no such curve, though single readings can be large or run the other way. Potency means the concentration at half of the fitted maximal effect. Not all compounds are listed; the hit share may differ from the screen's.

(1) Fc1cccc(CN2CCN(c3ccc(Cl)cc3)CC2)c1
(2) CC1(C)N=C(N)N=C(N)N1c1ccc(OCCCOc2ccccc2)c(Cl)c1
(3) O=C1Nc2ccccc2O/C1=C\c1c(F)cccc1Cl
(4) C(=C\c1nccc2c1[nH]c1ccccc12)/c1ccccc1
(5) COc1ccc(/C(C#N)=C/c2ccccn2)cc1
(6) Cc1cc(/C=C2\C(=O)NC(=O)N(c3ccccc3F)C2=O)c(C)n1-c1cc(C(=O)O)cc(C(=O)O)c1

screen / no.	1	2	3	4	5	6
2A StopGo	-6%	u	10%	0%	16%	-17%
NS1 inh	-9%	-7%	0%	-43%	-1%	4%
SARS PLpro yeast	-1%	1%	-2%	-4%	-1%	-1%

(7) CCN(CC)S(=O)(=O)c1cc(OC)ccc1N=Nc1ccc(O)c2ncccc12
(8) CS/C(N)=N/S(=O)(=O)c1ccc(NC(C)=O)cc1
(9) Cc1cc2c3ccccc3ncn2n1
(10) Brc1cc2c(cc1CN1CCc3ccccc3C1)OCO2
(11) CCC(=O)NC1=C(Cl)C(=O)C(NC(=O)CC)=C(Cl)C1=O
(12) NC(N)=Nc1ccc(N=C(N)N)cc1

screen / no.	7	8	9	10	11	12
2A StopGo	-20%	5%	15%	-14%	u	-7%
NS1 inh	3%	3%	-2%	1%	2%	4%
SARS PLpro yeast	4%	4%	0%	0%	-6%	2%

(13) Oc1ccc(N=Nc2ccccc2)cc1
(14) CN1CN(C)C(c2ccncc2)=C1c1ccncc1
(15) CCCOc1ccc(C(=O)NNC(=S)NC(=O)c2ccccc2)cc1
(16) Cc1cc(Br)c2c(c1)C1(OCCO1)C(=O)N2
(17) COc1ccc(CS(=O)(=O)CC(C)(O)c2ccccc2Cl)cc1 (stereo not drawn)
(18) COc1cc(/C=N/Nc2nncc3ccccc23)cc(OC)c1OC

screen / no.	13	14	15	16	17	18
2A StopGo	31%[activator]	-8%	u	10%	-22%	24%
NS1 inh	-42%	-15%	-101%	2%	-4%	-4%
SARS PLpro yeast	-2%	-5%	-7%	1%	-2%	-2%

(19) CC(=O)NS(=O)(=O)c1ccc2sc(C)nc2c1
(20) COc1cc(S(N)(=O)=O)c(OC)cc1N
(21) CCCCCCCCCCOC(=O)Cn1c(COc2ccc(Cl)cc2)[n+](C)c2ccccc21
(22) Cc1ccc(C)c(C2NC(=O)c3ccccc3N2)c1 (stereo not drawn)
(23) O=[N+]([O-])c1ccc(S(=O)(=O)c2ccccc2)nc1
(24) NC(=O)CN1C(=O)C(=O)N(Cc2ccccc2)C1=O

screen / no.	19	20	21	22	23	24
2A StopGo	-10%	-23%	u	2%	35µM*	3%
NS1 inh	2%	3%	-85%	-1%	-98%	-2%
SARS PLpro yeast	2%	-1%	-12%	-1%	-13%	1%

(25) Cc1ccc(S(=O)(=O)N2CCC(Oc3cccc(C(F)(F)F)c3)CC2)cc1
(26) Cc1c(C(=O)c2ccccc2)c2ccccc2n1C
(27) O=[N+]([O-])c1ccc(/C=C/c2ccncc2)cc1
(28) O=C(/C=C/C(=O)N1CCc2ccccc2C1)N1CCc2ccccc2C1
(29) Nc1ncnc(Nc2ccc(S(N)(=O)=O)cc2)n1
(30) CCOC(CCc1c(C)nc(NC(C)=O)[nH]c1=O)OCC

screen / no.	25	26	27	28	29	30
2A StopGo	-13%	3%	28%	-10%	-4%	-14%
NS1 inh	7%	-80%	5%	-2%	3%	-2%
SARS PLpro yeast	-1%	-6%	-2%	-4%	2%	2%

(31) N#C/C(=C\c1ccc(C#N)cc1)C(=O)c1ccccc1
(32) CN1CCC(c2c[nH]c3ccccc23)C1 (stereo not drawn)
(33) O=C1OCCN1S(=O)(=O)Nc1ccccc1
(34) COc1ccccc1NC(=O)Oc1cccc(OC(=O)c2ccccc2)c1
(35) Fc1cccc(CNc2ncnc3cc(Cl)ccc23)c1F
(36) C=CCNC(=S)Nc1ccc(OC(=O)Nc2ccc(Cl)c(Cl)c2)cc1

screen / no.	31	32	33	34	35	36
2A StopGo	-19%	1%	4%	3%	u	-8%
NS1 inh	5%	5%	1%	-64%	-62%	-158%
SARS PLpro yeast	-1%	0%	-2%	-4%	-2%	-5%

(37) COc1ccc2[nH]c3c(c2c1)CCNC3c1ccc([N+](=O)[O-])o1 (stereo not drawn)
(38) N#Cc1c(Cl)nc(-c2ccncc2)nc1-c1ccccc1
(39) Cn1c([N+](=O)[O-])cnc1N1CCN(c2nncs2)C1=O
(40) c1ccc2c(NCCc3c[nH]c4ccccc34)c3ccccc3nc2c1
(41) COc1cc2c(c(OC)c1OC)-c1ccc(NC(=O)c3ccc(F)cc3)c(=O)cc1[C@@H](NC(C)=O)CC2
(42) Cc1cccc(CS(=O)(=O)c2ncc(CO)n2C)c1

screen / no.	37	38	39	40	41	42
2A StopGo	-28%	-5%	-7%	u	u	-10%
NS1 inh	12%	2%	3%	-2%	8%	4%
SARS PLpro yeast	-2%	2%	-2%	0%	2%	-2%

(43) CN(C)c1ccc2nc3c(=O)[nH]c(=O)nc-3n(CC(O)C(O)C(O)CO)c2c1 (stereo not drawn)
(44) CCC(CC)c1ncc[nH]1
(45) CC(=O)OCc1cc(-c2nc3ccccc3[nH]c2=O)nn1-c1ccc(Cl)cc1
(46) Cc1cc(O)c(C(=O)/C=C/c2c(F)c(F)c(F)c(F)c2F)c(=O)o1
(47) C[C@H]1O[C@@H](OC2CC[C@]3(C=O)[C@H]4CC[C@]5(C)[C@@H](C6=CC(=O)OC6)CC[C@]5(O)[C@@H]4CC[C@]3(O)C2)CC2OC(C)(C)OC21 (stereo partly drawn)
(48) O=C1NCN(CCO)CN1

screen / no.	43	44	45	46	47	48
2A StopGo	-21%	-7%	-13%	u	u	-9%
NS1 inh	1%	1%	-3%	9%	4%	7%
SARS PLpro yeast	-5%	1%	-2%	-1%	0%	2%

(49) CS(=O)(=O)Nc1nc2ccccc2[nH]1
(50) Clc1ccc(CN2CCc3c([nH]c4ccccc34)C2)cc1Cl
(51) CC(=O)Nc1ccc(S(=O)(=O)Nc2nc3ccccc3nc2Cl)cc1
(52) Nc1nc(N)c(N=Nc2ccc(S(N)(=O)=O)cc2)c(=O)[nH]1
(53) O=C1NCCCCC1NS(=O)(=O)c1ccccc1 (stereo not drawn)
(54) Oc1cc(-n2cccn2)c(O)cc1-n1cccn1

screen / no.	49	50	51	52	53	54
2A StopGo	-2%	-7%	40%[activator]	-8%	-15%	53%[activator]
NS1 inh	5%	-7%	4%	2%	1%	-50%
SARS PLpro yeast	0%	-6%	8%	1%	-3%	-6%

(55) CCOC(=O)N1C/C(=C\c2ccccc2)C(=O)/C(=C/c2ccccc2)C1
(56) Nc1ccc(C(=O)Nc2ccc(NC(=O)c3ccco3)c(O)c2)cc1
(57) O=C(COc1ccc2ccccc2c1)N[C@@H](C(=O)O)c1ccc(O)cc1
(58) CNc1ccn(C2CCCO2)c(=O)n1 (stereo not drawn)
(59) CSc1cccc(NC(=O)N2CCN(C)CC2)c1
(60) O=C(O)CN1C(=O)/C(=C\c2ccccc2OCc2ccc(Cl)cc2)SC1=S

screen / no.	55	56	57	58	59	60
2A StopGo	20µM*	52%[activator]	-14%	-13%	-3%	-21%
NS1 inh	-35%	u	10%	-4%	u	9%
SARS PLpro yeast	-1%	-3%	1%	0%	1%	1%

(61) CC(C)(C)N1CC(OC(N)=O)C1
(62) CSc1cccc(NC(=O)Nc2nc3c(C)cccc3s2)c1
(63) O=C(O)c1cccc(-n2cc(-c3cccc(C(F)(F)F)c3)cn2)c1
(64) CCCC(=O)Nc1nn(CC)c2nc3ccc(C)cc3cc12
(65) CNc1ccc2c3c(cccc13)C(=O)N(C)C2=O
(66) O=C(c1ccco1)C(O)c1ccco1 (stereo not drawn)

screen / no.	61	62	63	64	65	66
2A StopGo	-6%	-1%	8%	-3%	-9%	-4%
NS1 inh	5%	-2%	-9%	-2%	-35%	3%
SARS PLpro yeast	1%	-2%	-6%	0%	0%	0%

(67) Cc1cnc(SCc2ccc(Cl)cc2Cl)[nH]c1=O
(68) O=C(O)CN1C(=O)/C(=C\c2cc(Br)ccc2OCc2ccc(Cl)cc2Cl)SC1=S
(69) COc1ccc(OC)c(Nc2nc(C)nc3c2oc2ccccc23)c1
(70) [NH-]c1ncnc2c1N=C[N+]2=CC=CCO
(71) CCOc1ccc(CNc2ccc3c(c2)ncn3C(C)(C)C)cc1
(72) CCOc1ccc(NC(=O)c2nc(SCC)ncc2Cl)cc1

screen / no.	67	68	69	70	71	72
2A StopGo	36%[activator]	-18%	-24%	3%	14%	-15%
NS1 inh	-36%	2%	-12%	4%	-6%	-8%
SARS PLpro yeast	-9%	0%	1%	0%	8%	2%

(73) Oc1ccc(Nc2ncnc3c2oc2ccccc23)cc1
(74) O=C(/C=C/c1cccnc1)c1ccccc1O
(75) O=C(Oc1ccc[nH]c1=O)c1cc([N+](=O)[O-])cc([N+](=O)[O-])c1
(76) Cc1ccccc1NC(=O)NCCN1CC1
(77) Cc1cc2c(cc1C)NC1=C(N2)OC(c2cccc(O)c2)C1=O (stereo not drawn)
(78) CCOC(=O)c1ccc(-n2c(CCC(=O)O)ccc2-c2ccc(F)cc2)cc1

screen / no.	73	74	75	76	77	78
2A StopGo	64%[activator]	-13%	-14%	-9%	26%	-10%
NS1 inh	3%	-83%	3%	6%	-5%	2%
SARS PLpro yeast	-3%	-1%	2%	-1%	2%	-2%

(79) CCCSc1nc2c(c(=O)n(C)c(=O)n2C)n1C
(80) Cc1nc2cccnc2nc1C
(81) O=C(O)c1c(C(=O)O)c(-c2ccc(Br)cc2)n2c1CSC2
(82) O=[N+]([O-])c1ccc(C2=NCCO2)cc1
(83) CCOC(=O)c1ccc(Nc2sc(C(=O)c3cccc([N+](=O)[O-])c3)c(N)c2C#N)cc1
(84) CC(=O)NN1C(=O)/C(=C2/Sc3ccccc3N2C)SC1=S
(85) Cc1ccc(C(O)(CCN2CCCCC2)c2ccccc2)cc1 (stereo not drawn)
(86) O=[N+]([O-])c1ccccc1NCc1c(O)ccc2ccccc12
(87) Nc1nc2ccc([N+](=O)[O-])cc2[nH]1

screen / no.	79	80	81	82	83	84	85	86	87
2A StopGo	-22%	-14%	-12%	-1%	u	-2%	-15%	-3%	-9%
NS1 inh	0%	-1%	10%	-60%	1%	10%	0%	8.9µM*	0%
SARS PLpro yeast	-1%	1%	2%	0%	2%	1%	0%	0%	0%

Of the compounds above, 14 contain an NH in an aromatic ring.
(4) C(=C\c1nccc2c1[nH]c1ccccc12)/c1ccccc1
(30) CCOC(CCc1c(C)nc(NC(C)=O)[nH]c1=O)OCC
(32) CN1CCC(c2c[nH]c3ccccc23)C1 (stereo not drawn)
(37) COc1ccc2[nH]c3c(c2c1)CCNC3c1ccc([N+](=O)[O-])o1 (stereo not drawn)
(40) c1ccc2c(NCCc3c[nH]c4ccccc34)c3ccccc3nc2c1
(43) CN(C)c1ccc2nc3c(=O)[nH]c(=O)nc-3n(CC(O)C(O)C(O)CO)c2c1 (stereo not drawn)
(44) CCC(CC)c1ncc[nH]1
(45) CC(=O)OCc1cc(-c2nc3ccccc3[nH]c2=O)nn1-c1ccc(Cl)cc1

screen / no.	4	30	32	37	40	43	44	45
2A StopGo	0%	-14%	1%	-28%	u	-21%	-7%	-13%
NS1 inh	-43%	-2%	5%	12%	-2%	1%	1%	-3%
SARS PLpro yeast	-4%	2%	0%	-2%	0%	-5%	1%	-2%

(49) CS(=O)(=O)Nc1nc2ccccc2[nH]1
(50) Clc1ccc(CN2CCc3c([nH]c4ccccc34)C2)cc1Cl
(52) Nc1nc(N)c(N=Nc2ccc(S(N)(=O)=O)cc2)c(=O)[nH]1
(67) Cc1cnc(SCc2ccc(Cl)cc2Cl)[nH]c1=O
(75) O=C(Oc1ccc[nH]c1=O)c1cc([N+](=O)[O-])cc([N+](=O)[O-])c1
(87) Nc1nc2ccc([N+](=O)[O-])cc2[nH]1

screen / no.	49	50	52	67	75	87
2A StopGo	-2%	-7%	-8%	36%[activator]	-14%	-9%
NS1 inh	5%	-7%	2%	-36%	3%	0%
SARS PLpro yeast	0%	-6%	1%	-9%	2%	0%
